Bioassay records from PubChem BioAssay.
BJeLR lethal: MLPCN primary cell-based screen for lethality selective to Ras in HRASV12 cells | BJeLR (HRASV12) viability, CellTiter-Glo ATP luminescence, 48 h; reference of the scale not given here | inhibition, % (no concentration beside the values) | hit rate 0.17% among 300,000 | AID 1554, 2009;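 active = replicate mean above 50%; inconclusive = above 50% but judged a plate artefact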;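 note: 50 nL library stock added to about 25 µL; numbers are from one replicate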
PrP UTR inh: inhibition of PrP 5' UTR reporter expression; inhibition, % (no concentration beside the values); hit rate 0.35% among 340,000; cell-based PrP 5' UTR mRNA reporter, plate reader; AID 488862, 2010;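 active = every replicate at 50% or more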;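 note: 0 = median of the neutral control wells; tested in H4 reporter cells; numbers are from one replicate; inactives centre near -14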
Autofluor counter: counter-screen for toxin protease inhibitors: compound fluorescence; hit rate 3.1% among 360,000; fluorescence intensity (no concentration beside the values); AID 624483; compound autofluorescence counterscreen, microsphere flow cytometry; active compounds read high;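 active = at least 3 SD above the mean of all compounds, about 16000 in these data; inconclusive = too few beads counted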;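 note: 100 nL of 1 mM stock went into each well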
Sa ugtP lethal: growth inhibition of ugtP-null S. aureus, primary screen, RN4220 ugtP deletion, OD600; AID 1259309, 2017; hit rate 0.54% among 330,000; growth inhibition, % (no concentration beside the values); 16 h; some inactives read as strong as hits;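 active = z-score under -3 and OD600 up to 0.15 on both plates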;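 note: plate controls were untreated wells for no effect and antibiotic for full effect; wells of about 80 µL received 100 nL stock; the first replicate is given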
Mtb hypoxia rep: PubChem AID 1159583; M. tuberculosis hypoxia-regulated fluorescent reporter, fluorescence; fluorescence inhibition, % (concentration not given with the values); hit rate 0.1% among 300,000;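 active = 35 to 45% if threefold the growth effect, above 45% if 1.5-fold the growth effect; inactive = the rest, general growth blockers included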;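 note: wells of about 50 µL received 100 nL stock; 0% = vehicle wells and 100% = reference inhibitor wells; whole bacteria with a GFP reporter of the hypoxia response; strong numbers were not always called active; many hits fall short of the cut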
Sa RN4220 lethal: growth inhibition of S. aureus RN4220, primary screen, OD600. hit rate 0.33% among 330,000. inhibition, % (no concentration beside the values). AID 1259311, 2017. 16 h;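 active = z-score of -3 or lower and OD600 up to 0.18 on both plates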;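 note: plate controls were untreated cells for no effect and reference antibiotic for full effect; stock transfer was 100 nL into about 80 µL; one replicate is shown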
Mtb hypoxia rep growth: second read-out of Mtb hypoxia rep, no call of its own (marks repeat the call); growth inhibition, %; measured here: M. tuberculosis growth (absorbance);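 0% = vehicle and 100% = reference antibiotic; read after six days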
* = called active by the depositor; ? = inconclusive; / = not tested or not shown; & = joins results of further samples.

compound,BJeLR lethal,PrP UTR inh,Autofluor counter,Sa ugtP lethal,Mtb hypoxia rep,Mtb hypoxia rep growth,Sa RN4220 lethal
O=C(CC1CC=CCC(NC(=O)OCC2c3ccccc3-c3ccccc32)C(=O)OC(c2ccccc2)CNC1=O)NC(CO)Cc1ccccc1 (configuration not stated),/,/,/,6&-1,-10&6,0&16,8.2&0.5
CC(=O)c1cccc(S(=O)(=O)Nc2ccc(N3CCOCC3)cc2)c1,-6,-23,3724,-1,-3,1,-3.6
COc1ccc(N2C(=O)CC(n3cnc4ccccc43)C2=O)cc1 (configuration not stated),-4,-1,22109*,-7,-1,4,-1.7
CCCNC(=O)Cc1ncn[nH]1,10,-29,20413*,-2,9,2,2.0
COc1ccc(N/N=C(/Oc2ccc([N+](=O)[O-])cc2)C(C)=O)cc1,4,-9,4300,/,/,/,/
Cc1cc(C)c(C#N)c(N2CCC(C(N)=O)CC2)n1,-2,-26,2749,10,1,4,-1.1
O=C(COC(=O)c1ccc(NC(=O)C2CC=CCC2C(=O)O)cc1)c1ccccc1 (configuration not stated),6,/,4236,8,-2,11,1.3
Cc1ccc(OCC(=O)O/N=C(\N)c2ccncc2)cc1C,-1,-38,5628,-7,14,6,5.3
O=C(Nc1ccc2c(c1)CCC2)c1cccc(S(=O)(=O)N2CCN(c3ccc(F)cc3)CC2)c1,3,-4,3015,-5,-2,7,10
C=CCS(=O)(=O)N1CCCC(N(C)CCc2ccc(OC)c(OC)c2)C1 (configuration not stated),-1,-74,4608,13,5,6,4.6
CCCCNC(=S)N(C)N=Cc1ccc(OCc2ccc(C(=O)OC)cc2)c(OC)c1,/,/,/,4,5,-2,31
Cc1ccc(NC(=O)C2CCCN2C(=O)OC(C)(C)C)cc1C (configuration not stated),4,-17,4874,4,8,6,4.2
CNc1ccc([N+](=O)[O-])cc1,/,0,6072,6,4,1,5.2
N#Cc1cc(-c2ccccc2)nc(Oc2ccc(Cl)cc2)n1,-3,-13,2136,16,7,5,2.8
COC(=O)c1cn(CCOc2ccccc2OC)c2ccccc12,3,-15,?,-9,-9,-5,4.5
Cc1ccc(S(=O)(=O)N[C@H](C(=O)OCC(=O)N2N=C(c3ccc(Cl)cc3)CC2c2ccco2)C(C)C)cc1 (some centres not stated),-5,-21,2015,-22,1,4,-4.5
O=S1(=O)N=C(Nc2ccc(O)cc2)c2ccccc21,-7,-23,3166,3,4,2,3.3
Cc1ccc(Oc2c(C=O)c3ccccc3n2C)cc1,/,-7,3323,10,7,5,6.4
COc1cc(C(=O)NCC(=O)NN=Cc2ccc(-c3cccc([N+](=O)[O-])c3)o2)cc(OC)c1OC,/,/,/,-15,4,12,-1.4
O=C1CSC(c2ccccc2)N1c1ccccc1F (configuration not stated),-7,-12,3722,7,21,4,5.5
CSc1nnc2c(n1)[nH]c1c(C)cccc12,-6,-35,8832,-11,-11,2,1.2
COC(=O)c1ccc(NC2CC(=O)N(c3ccccc3C)C2=O)cc1 (configuration not stated),12,-25,?,8,7,4,3.5
CCCCn1cnc2sc3c(c2c1=N)CCCC3,-5,-9,9336,-6,-11,-1,-2.1
CC(=O)Nc1cc(-c2ccccc2)nn1Cc1ccc(Cl)cc1,5,-5,6090,5,8,12,4.0
CC(C)c1ccc(OCc2nnc(SCC(=O)N3CCCCC3)o2)cc1,-5,-30,5877,5,5,7,4.1

More structures:
compound,BJeLR lethal,PrP UTR inh,Autofluor counter,Sa ugtP lethal,Mtb hypoxia rep,Mtb hypoxia rep growth,Sa RN4220 lethal
CCOc1ccc(C(=O)NN=Cc2ccccc2[N+](=O)[O-])cc1,/,/,/,2,2,9,3.4
Cc1ccc(C)c(C(=O)CSc2nc(C)cc(=O)[nH]2)c1,-8,-9,3904,0,13,6,2.2
CCOc1ccccc1OCCC(=O)Nc1ccc2c(c1)OCO2,/,-23,4026,-6,11,7,8.0
COC(=O)[C@@]1(Cc2ccc(F)cc2)C2C(CC(=O)C2CC(=O)C(=O)N(C)C)CN1C(=O)c1ccccc1 (some centres not stated),/,/,/,-14,15,14,1.9
CCOC(=O)N1CCC(=NNc2ncc(C(F)(F)F)cc2Cl)CC1,7,-6,5040,/,/,/,/
COc1cccc(OCc2cc(C(=O)N(C)C3CC(C)(C)NC(C)(C)C3)no2)c1,-6,-1,5047,-5,2,-1,-1.5
C#C[C@]1(O)CCC2C3C(=O)C=C4C(Cl)=CCC[C@]4(C)C3CC[C@@]21C (some centres not stated),/,0,3789,5,1,9,3.4
O=c1[nH]c([N+](=O)[O-])nn1C(c1ccccc1)c1ccccc1,4,-17,3840,3,-5,-3,-5.5
COc1ccc2nc(N=Cc3c(C)[nH]n(-c4ccc(C)cc4)c3=O)sc2c1,/,/,/,2,1,0,6.7
CC(c1ccccc1)C(CC(=O)O)C(=O)Nc1ccc(Cl)c(Cl)c1 (configuration not stated),16,-22,3661,2,7,3,3.4
CC(=NNc1ccc(C(F)(F)F)cn1)c1ccc(S(=O)(=O)NCc2ccco2)cc1,/,/,/,-12,2,7,9.3
C[C@H](NC(=O)OC(C)(C)C)C(=O)N/N=C/C1=Cc2ccccc2OC1,-6,-13,4881,/,/,/,/
CCOc1ccc(CN(C)CC(=O)Nc2cc(OC)c([N+](=O)[O-])cc2C)cc1,-7,-6,2437,-6,1,2,-2.0
COc1ccc(C(=O)CSc2nnc(Cn3nnc4ccccc43)n2C)cc1,-7,8,9435,3,7,-1,2.2
CC1([N+](=O)[O-])COC(C=Cc2ccccc2)OC1 (configuration not stated),/,-20,2933,4,9,7,4.6
COCCNC(=O)C(c1ccc(O)cc1)N(Cc1ccccc1)C(=O)CCC(=O)Nc1nccs1 (configuration not stated),-5,-17,5212,13,0,-5,-2.6
Cc1cccc(-n2ncc3c2CCCC3NC(=O)CC(F)(F)F)c1C (configuration not stated),-9,-27,4068,4,7,17,3.3
CC1CC(C)CN(C(=O)C2CCC(CNS(=O)(=O)c3ccccc3)CC2)C1 (configuration not stated),0,-9,3605,4,7,9,-0.2
Cc1cccc(NC(=O)CN2CCN(CC(=O)NCC3(N4CCCCC4)CCCCC3)CC2)c1C,/,-4,6392,4,-11,2,3.1
O=C(Cn1cnc2c(nnn2Cc2ccc(F)cc2)c1=O)N1CCN(c2ccccc2)CC1,/,/,10040,3,-8,1,-1.3
CCOC(=O)c1ccccc1NC(=O)Cn1cnc2c1c(=O)n(C)c(=O)n2C,-5,-17,2815,-1,11,7,4.3
NC1=NS(=O)(=O)NC1c1ccc(Br)cc1 (configuration not stated),-3,-27,4152,7,8,4,6.8
COc1ccccc1CN(Cc1cc2cc(C)cc(C)c2[nH]c1=O)Cc1nnnn1CC1CCCO1 (configuration not stated),-10,7,8682,-7,3,14,0.3
Cc1ccc(S(=O)(=O)N2CCCCC2)c2nsnc12,0,-30,4023,4,0,-5,5.4
COc1ccc(C=N/N=C2/NC(=O)C(CC(=O)O)S2)cc1OS(=O)(=O)c1ccccc1 (configuration not stated),/,/,/,0,5,2,5.2

Just Mtb hypoxia rep and Sa ugtP lethal, for some of the entries so far:
| SMILES | Mtb hypoxia rep | Sa ugtP lethal |
| --- | --- | --- |
| COc1ccc2nc(N=Cc3c(C)[nH]n(-c4ccc(C)cc4)c3=O)sc2c1 | 1 | 2 |
| CC(c1ccccc1)C(CC(=O)O)C(=O)Nc1ccc(Cl)c(Cl)c1 (configuration not stated) | 7 | 2 |
| CC(=NNc1ccc(C(F)(F)F)cn1)c1ccc(S(=O)(=O)NCc2ccco2)cc1 | 2 | -12 |

(continued)
compound,BJeLR lethal,PrP UTR inh,Autofluor counter,Sa ugtP lethal,Mtb hypoxia rep,Mtb hypoxia rep growth,Sa RN4220 lethal
COc1cccc(C2c3c(oc4ccc(Cl)cc4c3=O)C(=O)N2c2cc(C)on2)c1OC (configuration not stated),-9,6,16528*,-3,6,1,-1.6
COc1ccccc1CNS(=O)(=O)c1cccc(S(=O)(=O)N2CCOCC2)c1,2,-3,4827,-4,/,/,1.2
O=C(c1cc(COc2ccc3c(c2)CCCC3)on1)N1CCCC1,1,-65,6167,/,/,/,/
C/C(=N\Nc1ccccc1)c1c(O)n(Cc2ccccc2)c(=O)[nH]c1=O,-10,-32,2142,7,-2,6,-2.1
CC(C)c1cccc(OCC(=O)Nc2ccc(S(=O)(=O)Nc3ccccn3)cc2)c1,-11,-10,5286,-2,-1,1,5.2
Cc1c(/C(O)=C2/C(=O)C(=O)N(CCN3CCOCC3)C2c2ccco2)cnn1-c1ccccc1 (configuration not stated),/,26,4235,3,11,0,4.9
CC(Oc1ccccc1)C(=O)Nc1c2c(nn1-c1ccccc1)CS(=O)(=O)C2 (configuration not stated),0,-13,5552,0,5,-2,-0.1
O=C(NN=CC1CC=CCC1)c1cc(-c2cccnc2)nc2ccccc12 (configuration not stated),/,/,/,-6,0,4,-4.2
Nc1ccc2nn(-c3ccc(Cl)cc3)nc2c1,6,-19,3859,-3,0,-16,5.9
O=C1OCc2ccc(NC(=O)C3CCCCC3)cc21,0,-7,10349,0,7,5,4.5
O=C(NC(Cc1ccccc1)C(=O)O)c1ccccc1 (configuration not stated),4,-4,4594,5,/,/,-1.8
O=C1CCCCCN1CP(=O)(O)CCc1ccccc1,-5,1,6889,7,1,7,2.1
O=C(CSc1ncccn1)Nc1ccc(S(=O)(=O)N2CCCCC2)cc1,3,-15,3533,5,/,/,1.2
N#Cc1cnc(SCC(=O)NNC(=O)COc2cccc3ccccc23)nc1N,-6,-9,2859,/,/,/,/
CCOc1ccc(N(CC)C(=O)c2cn(CC)c(=O)c3cc(OC)c(OC)cc23)cc1,-9,-15,2947,7,1,-11,-0.1
S=c1[nH]c2ncccc2o1,4,-26,22317*,1,-12,-5,4.1
Clc1ccc(-c2cn3c(n2)CCC3)cc1,-1,-120,2527,4,/,/,0.2
CCOC(=O)c1c(C)n(CCN2CCN(C)CC2)c2ccc(OC)cc12,-3,-40,20539*,10,10,2,0.6
Cc1ccc(S(=O)(=O)n2ccc3c(OCCOCCSCC(NC(=O)OC(C)(C)C)C(=O)O)cccc32)cc1 (configuration not stated),-4,-8,2845,12,13,2,20
C=CCN(c1ccccc1)S(=O)(=O)c1cccc(C(=O)N2CC(C)CC(C)C2)c1 (configuration not stated),4,6,5574,-3,-8,3,-1.4
CCOC(=O)C(CC)n1nc(C)n2c(cc3occc32)c1=O (configuration not stated),1,-18,3727,-3,16,12,4.3
O=C(CSc1nc2ccccc2[nH]1)NCc1ccc(F)cc1,19,-3,4485,1,10,6,5.5

Two entries drawn at random from the list so far, as already listed:
compound,BJeLR lethal,PrP UTR inh,Autofluor counter,Sa ugtP lethal,Mtb hypoxia rep,Mtb hypoxia rep growth,Sa RN4220 lethal
CCOC(=O)c1ccccc1NC(=O)Cn1cnc2c1c(=O)n(C)c(=O)n2C,-5,-17,2815,-1,11,7,4.3
Nc1ccc2nn(-c3ccc(Cl)cc3)nc2c1,6,-19,3859,-3,0,-16,5.9
